Lassa entry inh: blocks Lassa virus binding to or entry into cells | Lassa virus pseudotype entry inhibition, cell reporter; control for the full effect not named in the record | Potency, µM (doses to about 37.9 µM), inactives show at the highest dose activity change, negative = inhibition, usual class: inhibitors | hit rate 1.2% among 300,000 | AID 540256; active means well fitted inhibition curve with a large enough effect; inconclusive means small, poorly fitted or top-dose-only effect, or effect the other way; inactive means flat fitted curve, though single readings scatter; tested in HEK293 cells; also: % is scaled to controls: 0 for no effect and ±100 for the full control effect; nearly all actives have a fitted effect of over 50% in size; luciferase read-out
NS1 inh: blocks influenza NS1 protein function. hit rate 0.4% among 270,000. AID 2326. Potency, µM (highest dose often 46.1 µM), for inactives: top-dose activity, positive = more growth. S. cerevisiae slowed by influenza A NS1, growth recovery by OD600; active means well fitted rising curve with a large enough effect; inconclusive means small, poorly fitted or top-dose-only effect; inactive means no such curve, though single readings can be large or run the other way; also: nearly all actives have a fitted effect of over 50% in size
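S. cerevisiae expressing influenza A NS1, grown in glucose, washed, then diluted 1:100 into pH 6.0 -URA galactose medium with 23 nl compound. Growth recovery read as OD600; NS1-free strain serves as control.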
Cruzain Triton: inhibitors of Trypanosoma cruzi cruzain with detergent; purified cruzain, Z-FR-AMC fluorescence, 0.01% Triton; hit rate 0.43% among 200,000; P25779; Potency, µM, inactives show max response, negative = inhibition, hits mostly inhibitors;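 also: plate controls were neutral wells for no effect and buffer without enzyme for full effect; nearly all actives have a fitted effect of over 40% in size; top concentration of the series not given in the record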
Target sequence (P25779 123-467 limits assumed): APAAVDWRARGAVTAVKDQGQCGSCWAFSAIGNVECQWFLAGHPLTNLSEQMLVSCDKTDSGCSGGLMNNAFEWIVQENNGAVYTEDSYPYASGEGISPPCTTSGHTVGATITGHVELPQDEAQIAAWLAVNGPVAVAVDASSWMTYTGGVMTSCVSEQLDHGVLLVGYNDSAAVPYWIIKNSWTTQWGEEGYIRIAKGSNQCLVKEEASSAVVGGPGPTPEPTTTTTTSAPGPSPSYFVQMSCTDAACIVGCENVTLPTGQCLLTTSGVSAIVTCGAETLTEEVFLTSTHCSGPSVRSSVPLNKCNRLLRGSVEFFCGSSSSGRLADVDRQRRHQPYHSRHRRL
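Detergent-containing run (0.01% Triton X-100) in acetate buffer pH 5.5 with 5 mM DTT: enzyme at 1.5 nM final, 15 min compound preincubation at room temperature, then 2 uM Z-FR-AMC substrate. Activity taken as 60 s fluorescence increase at 360/450 nm.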
Cruzain inh noDet: blocks cruzain activity in detergent-free assay; purified cruzain, Z-FR-AMC fluorescence, no detergent; Potency, µM, for inactives: max response, negative = inhibition, most hits filed as inhibitors; hit rate 2.3% among 200,000; AID 1476;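 also: plate controls were enzyme without inhibitor for no effect and buffer without enzyme for full effect; nearly all actives have a fitted effect of over 40% in size; top concentration of the series not given in the record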
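Detergent-free condition (0.00005% Triton X-100) in acetate buffer pH 5.5 with DTT. 1.5 nM enzyme and compound were pre-mixed 15 min, then 2 uM Z-FR-AMC substrate added; reaction progress from fluorescence change between first and third reads (60 s).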
SARS PLpro yeast: SARS-CoV PLP inhibition in yeast; Potency, µM (top dose mostly 32.9 µM), without a hit: at the top dose activity, positive = growth rescue; hit rate 0.19% among 330,000; S. cerevisiae expressing SARS-CoV PLpro, growth rescue; control for the full effect not named in the record; AID 485353; active means well fitted rising curve with a large enough effect; inconclusive means small, poorly fitted or top-dose-only effect; inactive means no such curve, though single readings can be large or run the other way; also: 0% is about no effect; nearly all actives have a fitted effect of over 55% in size; growth read by luminescence after 48 h
StopGo reporter: FMDV 2A StopGo reporter, luciferase signal | Potency, µM (titrated, usually from 57.9 µM), inactives show top-dose signal change, negative = less light | human cells with a luciferase reporter of 2A StopGo recoding; control for the full effect not named in the record | hit rate 1.2% among 410,000; active = well fitted falling curve with a large enough effect; inconclusive = small, poorly fitted or top-dose-only effect; inactive = no such curve, though single readings can be large or run the other way; tested in HEK293T cells; also: % is scaled to controls: 0 for no effect and ±100 for the full control effect; nearly all actives have a fitted effect of over 45% in size; luciferase light after 4 h
RE007 growth inh: less growth of the S. pombe RE007 Vpr strain; S. pombe RE007 Vpr strain, BacTiter-Glo ATP luminescence, 24 h; control for the full effect not named in the record; Potency, µM (highest dose often 92.2 µM), without a hit: at the highest dose activity change, negative = less growth; hit rate 0.21% among 360,000; active = well fitted falling curve with a large enough effect; inconclusive = small, poorly fitted or top-dose-only effect; inactive = no such curve, though single readings can be large or run the other way;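 also: % is scaled to controls: 0 for no effect and ±100 for the full control effect; nearly all actives have a fitted effect of over 50% in size; the assay follows cell death caused by Vpr and the record does not say whether a fall means rescue or toxicity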
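Fission yeast RE007 carrying one integrated HIV-1 vpr copy, seeded at OD 0.01 in PMG+AL medium with 23 nL pinned compound. Grown 24 h at 30 degrees; viability read by BacTiter-Glo luminescence after 5 min.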
Marburg entry inh: inhibitors of Marburg virus binding or cell entry; Marburg virus pseudotyped entry inhibition, cell reporter; control for the full effect not named in the record; about a third of the inactives were read at about 46 µM; Potency, µM (titrated, usually from 37.8 µM), inactives show at the top dose activity change, negative = inhibition, usual class: inhibitors; hit rate 1.8% among 300,000; AID 540276; active = well fitted inhibition curve with a large enough effect; inconclusive = small, poorly fitted or top-dose-only effect, or effect the other way; inactive = flat fitted curve, though single readings scatter; tested in HEK293 cells; about a fifth of its hits are not listed in these tables; also: % is scaled to controls: 0 for no effect and ±100 for the full control effect; luciferase read-out
* marks the source's active call; other numbers are inactive results; ? = inconclusive; . = no result given; & = joins results of further samples; [ ] = dose if it differs, or a comment. Unless noted, calls follow the shape of the dose curve; as a rule, active = well fitted curve in the direction sought with a large enough effect; inconclusive = small, poorly fitted or top-dose-only effect, or another doubt; inactive = no such curve, though single readings can be large; an effect the other way counts as inactive or inconclusive. Potency is read from the fitted curve at half-maximal effect.

smiles | Lassa entry inh | NS1 inh | Cruzain Triton | Cruzain inh noDet | SARS PLpro yeast | StopGo reporter | RE007 growth inh | Marburg entry inh
Cc1ccc(C)c(NC(=O)c2cc(S(=O)(=O)N3CCN(c4cccc(Cl)c4)CC3)ccc2F)c1 | 3.1%[46.1 µM] | . | 1.1% | 7.94µM* | . | 28.7% | . | .
O=C(Cn1c(=O)c2sccc2n(Cc2cccc([N+](=O)[O-])c2)c1=O)NCCc1ccccc1 | -6.2% | -18.2% | -4.1% | -12.8% | 1.5% | -18.9% | -14.0% | ?
Cc1ccc(CN(Cc2ccccc2)C(=S)NCC(=O)N2CCC3(CC2)OCCO3)o1 | -14.2% | . | . | . | 2.4% | 26.5% | -21.4% | ?
CCN(CC)c1ccc(NC(=O)Nc2ccccc2)cc1 | ? | -5.8% | . | . | -1.4% | 3.6% | -5.7% | ?
CCOC(=O)c1c(C)[nH]c(C(=O)COC(=O)CCS(=O)(=O)c2ccc(C)cc2)c1C | -11.3% | 6.5% | ? | 1.3% | -1.2% | -4.6% | 7.6% | 2.8%[46.1 µM]
COc1ccc(OCC(=O)Nn2c(-c3ccc(OC)cc3)nc3ccccc3c2=O)cc1 | 1.9% | 21.5% | -0.9% | 3.2% | ? | -24.4% | -1.0% | ?
COC(OC)c1ccc(C#N)c(SCc2ccc(C)cc2)n1 | 14.9% | 4.5% | . | . | 0.8% | -11.7% | 0.4% | -3.8%
COc1ccc2c(c1)c(=O)oc1cc(OCC(=O)N3CCC(C)CC3)ccc12 | -7.6% | -11.2%[9.22 µM] | -20.8% | ? | -5.2% | 0.7% | 2.0% | -9.7%
COCCn1c(SCC(=O)c2ccccc2)nc2c(c1=O)SC(C)C2 (stereo not drawn) | 1.1% | -73.6% | -4.6% | -13.1% | -2.5% | . | 0.1% | 2.0%
C=CCN1C(=O)NC(c2ccc(OC)cc2)(C(F)(F)F)S/C1=C(\C#N)c1nnc(N2CCOCC2)n1-c1ccccc1 (stereo not drawn) | ? | -8.3% | -4.3% | ? | -5.1% | ? | 2.1% | ?
CC(=O)Nc1ccc(-c2cc(C(=O)O)c3ccc(C)cc3n2)cc1 | 1.6%[46.1 µM] | 0.4% | . | . | 0.6% | 5.9% | 1.7% | ?
COc1ccc(S(=O)(=O)N2CCOC2CNC(=O)C(=O)NCc2ccco2)cc1C (stereo not drawn) | 8.8% | -9.5% | . | . | -1.0% | 1.6% | -11.1% | 2.3%[46.1 µM]
O=C(NC1CC1)C1CCCN1S(=O)(=O)c1ccc2ccccc2c1 (stereo not drawn) | -18.2% | ? | 7.1% | -4.3% | 1.2% | 0.4% | 12.1% | ?
CC1(C)Cc2nc(N3CCOCC3)c(C#N)cc2CO1 | 18.6% | ? | -3.3% | 1.5% | 1.7% | -9.8% | 1.7% | 0.3%
Cc1ccc(C(=O)N2CCCC(C(=O)Nc3cccc(-c4ccc(F)cc4)c3)C2)cn1 (stereo not drawn) | -24.1%[46.1 µM] | -1.5% | . | . | -5.0% | ? | -10.0% | ?
CCOC(=O)N1CCN(c2c(NCCc3ccc(OCC)c(OCC)c3)c(=O)c2=O)CC1 | 0.2% | -0.9% | 3.0% | 1.0% | 3.9% | 7.0% | 4.8% | 3.9%
O=C(CCNS(=O)(=O)c1ccc2c(c1)CCN2C(=O)C1CC1)N1CCN(c2ccccc2F)CC1 | -10.1%[46.1 µM] | . | -2.7% | 3.0% | . | 0.0% | . | .
Cc1ccc(COC(=O)c2[nH]c3c(c2C)C(=O)CC(c2ccc(N(C)C)cc2)C3)cc1 (stereo not drawn) | -17.8%[46.1 µM] | . | -2.6% | -1.9% | . | 0.0% | . | 20.1%[46.1 µM]
CCOC(=O)CN1C(=O)C(O)(CC(=O)c2ccco2)c2ccccc21 (stereo not drawn) | 0.6% | 2.0% | 3.3% | 4.9% | -0.6% | -13.3% | 13.6% | -24.3%
CCN(CC)C(=O)COc1ccc2c(-c3ccc(OC)cc3)cc(=O)oc2c1 | . | -6.0% | . | . | -0.9% | -14.9% | 20.9% | .
Cc1cc(Cl)ccc1NC(=S)Nc1ccccn1 | 25.0% | -3.2% | -3.1% | 1.3% | 5.01µM* | 34.6%[activator] | -21.1% | 4.9%
CCCCN(C(=O)c1ccc(S(=O)(=O)N2CCCCC2)cc1)C1CCS(=O)(=O)C1 (stereo not drawn) | 14.2% | . | . | . | -3.8% | 2.8% | 16.9% | 4.4%
COc1ccc(C(=O)NC(Cc2ccc(OC(=O)c3ccc(OC)cc3)cc2)C(=O)O)cc1 (stereo not drawn) | 29.9%[46.1 µM] | 5.2% | . | . | -0.6% | -6.0% | -13.0% | 5.6%[46.1 µM]
COc1cc(OC)c(NC(=O)Nc2cccc(OCc3cc(=O)n4ccccc4n3)c2)cc1Cl | 8.8%[46.1 µM] | . | 4.2% | -12.5% | . | 7.2% | . | .
Cc1ccc(C(=O)NCc2ccc3c(c2)OCO3)c(C)c1 | ? | -18.0% | . | . | 3.6% | 38.5%[activator] | 4.9% | 16.5%
Cc1cc(C)c2cc(CN(CCCN(C)C)C(=S)NCc3ccccc3)c(=O)[nH]c2c1 | ? | 3.9% | . | . | 18.5% | 7.8% | -10.0% | ?
CC1CCCN(C(=O)COC(=O)Cn2cnc3ccccc32)C1 (stereo not drawn) | 12.6% | . | . | . | 6.3% | 9.5% | 0.6% | 1.8%
CC(=O)N1CCN(C(=O)CNC(=O)c2ccc(Br)o2)CC1 | 25.3%[46.1 µM] | 10.5% | . | . | -3.8% | 35.3%[activator] | 1.0% | 4.4%[46.1 µM]
O=S(=O)(CCc1nc2ccccc2s1)c1ccc2ccccc2c1 | 1.7% | -9.6% | -0.6% | -28.0% | -20.2% | 52.1%[activator] | -15.7% | 2.5%
COc1ccc(C(=O)NCc2nnc(SCC(=O)Nc3nc4ccccc4s3)o2)cc1 | 4.4% | ? | 1.4% | -0.9% | 8.1% | ? | 8.0% | 1.3%
CCCCc1nc2cc(Cl)ccc2o1 | -0.1%[46.1 µM] | -5.6% | . | . | -0.4% | -18.6% | 4.7% | 23.7%[46.1 µM]
COc1cccc2cc(C(=O)Oc3ccc(NC(C)=O)cc3)c(=O)oc12 | -23.8% | -2.1% | -4.7% | 11.0% | -9.0% | 1.6% | 23.9% | 2.0%
O=C(CN1C(=O)NC2(CCOc3ccccc32)C1=O)NCc1ccccc1 (stereo not drawn) | 9.6% | . | . | . | 1.5% | -8.2% | -5.1% | .
COc1ccc(-c2cc(C(=O)NC3CCCC3)no2)cc1 | -3.6%[46.1 µM] | -8.3% | . | . | 0.0% | 15.9% | -4.3% | ?
COCCNC(=O)c1n[nH]c2ccccc12 | -2.5%[46.1 µM] | . | . | . | -7.4% | -0.6% | -5.0% | ?
O=S(=O)(NCC1CCCO1)c1ccc(S(=O)(=O)N(Cc2ccc(F)cc2)Cc2ccco2)cc1 (stereo not drawn) | ? | -4.9% | -1.4% | 7.6% | 19.9% | -7.4% | 16.7% | 5.2%
COc1ccc(N2CCN(/C(=N\S(=O)(=O)c3ccccc3)Nc3nc(C)cc(C)n3)CC2)cc1 | ? | -19.7% | -1.1% | 11.2% | 2.5% | 20.2% | -7.5% | 11.7%&11.7%
Fc1ccccc1N1CCN(c2c3c(nc4nncn24)CCC3)CC1 | -1.0%[46.1 µM] | . | -0.3% | -17.7% | . | ? | . | 8.4%[46.1 µM]
Cc1ccccc1OCC(=O)Nc1ccc(N2CCN(C)CC2)c(Cl)c1 | 16.2%[46.1 µM] | -3.2% | . | . | -2.6% | 38.8%[activator] | 12.3% | ?
O=C(N/N=C/c1ccccc1Br)C1CC1 | 28.0%[46.1 µM] | . | . | . | -4.6% | -3.7% | -18.3% | 8.9%[46.1 µM]
CC1(C)Cc2nc3nc(SCC(=O)NCCc4ccccc4)n(-c4ccccc4)c(=O)c3cc2CO1 | -9.3% | 2.3% | -0.2% | 11.4% | 7.5% | -0.1% | 4.5% | 13.4%
O=C(CN1CCN(Cc2ccccc2)CC1)Nc1cccc(Br)c1 | 3.9%[46.1 µM] | -17.3% | . | . | -3.2% | -0.5% | 0.8% | 7.8%[46.1 µM]
O=S(=O)(c1ccccc1)c1ccc(NCc2ccco2)cc1 | -29.9% | -5.9% | -5.8% | -1.9% | 3.7% | ? | 11.2% | -2.7%
O=C(CSc1nccn1Cc1ccc(F)cc1)NCc1ccco1 | ? | . | -0.6% | 4.5% | . | 0.1% | . | .
Cc1nn(Cc2ccc(F)cc2)c2sc(C(=O)Nc3ccc(N4CCOCC4)cc3N3CCOCC3)cc12 | ? | 20.4% | -8.7% | ? | -4.6% | 0.0% | 15.9% | ?
Cc1ccnc(NC(=O)c2oc3ccccc3c2C)c1 | 3.55µM* | . | . | . | -3.1% | -40.1% | -18.3% | ?
CCN1C(=O)C(CC(=O)Nc2ccc(OC)cc2)N(Cc2cccnc2)C1=S (stereo not drawn) | 0.9% | 7.5% | 3.2% | -2.2% | 0.1% | 21.6% | -10.2% | -20.2%
O=C1C2C3C=CC(C3)C2C(=O)N1CC1CCCO1 (stereo not drawn) | -5.2% | -2.1% | 2.4% | 6.8% | -1.3% | -6.3% | -3.0% | 9.8%
CC(=O)Nc1ccccc1OCc1cc(=O)n2c3c(sc2n1)CCCC3 | 16.5%[46.1 µM] | . | -0.8% | 3.3% | . | ? | . | 10.2%[46.1 µM]
Cc1cccc(N2C(=NC(=O)c3ccccc3)SC3CS(=O)(=O)CC32)c1 (stereo not drawn) | -9.0% | 6.5% | . | . | 31.0% | -15.0% | 7.3% | -10.0%
COc1cccc2cc(C(=O)N3CCN(C/C=C/c4ccccc4)CC3)c(=O)oc12 | ? | 3.6% | -0.6% | -11.9% | 13.2% | -6.3% | 2.8% | -17.6%
